Source: PubChem BioAssay (National Center for Advancing Translational Sciences (NCATS))
TSHR agonist: TSH receptor (human) agonism; HEK293-CNG-TSHR cells (CNG channel as cAMP sensor), membrane potential dye, cAMP; Potency, µM (highest dose often 57.1 µM), inactives show at the top dose activation, most hits filed as activators; hit rate 0.48% among 73,000; active = well fitted activation curve of enough size with the parental cells flat; inconclusive = any curve in the parental cells; inactive = parental cells flat and receptor cells flat or falling; further: potency means the concentration at half of the fitted maximal effect; % of control where 0% means no effect; weak receptor curves with flat parental cells got no call and are not listed
Target sequence (P16473 whole entry, looked up): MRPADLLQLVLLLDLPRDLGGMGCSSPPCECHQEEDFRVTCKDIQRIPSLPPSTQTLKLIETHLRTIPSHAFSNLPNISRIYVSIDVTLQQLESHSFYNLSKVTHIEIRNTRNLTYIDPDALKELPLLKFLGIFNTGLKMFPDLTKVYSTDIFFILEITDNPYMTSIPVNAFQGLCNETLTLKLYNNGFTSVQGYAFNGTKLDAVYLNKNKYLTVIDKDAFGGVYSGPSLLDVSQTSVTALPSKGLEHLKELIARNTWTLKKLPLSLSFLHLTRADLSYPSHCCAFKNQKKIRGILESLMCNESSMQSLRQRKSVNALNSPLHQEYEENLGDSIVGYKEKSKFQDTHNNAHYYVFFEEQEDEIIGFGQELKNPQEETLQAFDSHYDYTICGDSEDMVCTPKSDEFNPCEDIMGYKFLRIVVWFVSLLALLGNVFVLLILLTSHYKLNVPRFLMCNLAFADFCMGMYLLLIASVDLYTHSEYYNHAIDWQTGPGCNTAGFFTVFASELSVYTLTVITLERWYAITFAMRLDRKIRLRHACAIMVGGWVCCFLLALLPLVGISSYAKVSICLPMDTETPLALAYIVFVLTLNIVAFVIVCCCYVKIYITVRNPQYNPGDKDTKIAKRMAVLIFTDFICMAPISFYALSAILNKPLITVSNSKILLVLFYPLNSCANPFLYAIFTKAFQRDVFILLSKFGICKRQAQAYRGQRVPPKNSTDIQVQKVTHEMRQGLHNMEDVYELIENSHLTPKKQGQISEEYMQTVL
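HEK 293 cells stably expressing TSHR and a modified CNG channel, with CNG-only parental cells as counterscreen, were preloaded 60 min at room temperature with membrane potential dye containing 100 uM RO 20-1724. Compound exposure was 30 min, and depolarization was read as fluorescence at 590 nm.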
Resorufin autofl: compound fluoresces in the resorufin spectral region; Compound fluorescence, resorufin region 547/598 nm, buffer; active compounds read high; max dye-equivalent concentration, M; hit rate 0.04% among 59,000; AID 588; active = above 10 nM dye equivalent; inconclusive = 1 to 10 nM; inactive = 1 nM or less; a few of its hits are not listed in these tables; further: highest value over a series up to 38 µM
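Read-out: intrinsic compound fluorescence at ex 547/em 598 nm after 15 min at RT in pH 8.0 Tris (100 mM). Values expressed as resorufin-equivalent concentration from per-plate standard series.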
A647 autofl: compound fluoresces in the A647 spectral region | Compound fluorescence, A647 channel (570/671 nm), Tris buffer | max dye-equivalent concentration, M | 59,000 tested, under 10 active | AID 592; active means above 1 µM dye equivalent; inconclusive means 0.1 to 1 µM; inactive means 0.1 µM or less;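 further: values scaled relative to a standard on each plate; highest value over a series up to 38 µM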
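Spectral profiling of library compounds in pH 8.0 Tris: 15 min room-temperature incubation, single ex/em pair (570/671 nm), response normalized to Alexa 647 equivalents.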
A488 fluor: compound fluoresces in the A488 spectral region; compound autofluorescence, A488 spectral region, dye equivalency; active compounds read high; max dye equivalency, M; hit rate 0.1% among 59,000; AID 591; active = above 10 nM dye equivalent; inconclusive = 1 to 10 nM; inactive = 1 nM or less; about half of its hits are not listed in these tables;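 further: highest value over a series up to 38 µM; compound alone in buffer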
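Spectroscopic profiling in the A488 region: compounds in pH 8.0 Tris (100 mM), 15 min RT, CCD imaging with 480 nm excitation and 540 nm emission; responses normalized against A488 dye standards.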
AID923: qHTS Assay for Allosteric/Competitive Inhibitors of Caspase-1: Spectroscopic Profiling in AFC Spectral Region. hit rate 1.1% among 75,000. compound fluorescence, AFC spectral region (405/520 nm); almost no hit is shown here. AID 923, 2007. Potency, µM (highest dose often 57.5 µM), for inactives: top-dose fluorescence increase, hits mostly activators; active means well fitted activation curve with a large enough effect; inconclusive means small, poorly fitted or top-dose-only effect;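 further: potency means the concentration at half of the fitted maximal effect; 0% is about no effect; scaled to a free AFC standard on each plate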
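Compound autofluorescence profiled at 405 nm ex/520 nm em during kinetic caspase 1 run (50 nM enzyme, 5 uM Ac-WEHD-AFC, HEPES pH 7.5, 10 mM DTT). Titration up to 57 uM; baseline from regression intercept, normalized to AFC standard curve.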
Active calls of the source: *; i = inactive; ? = inconclusive; nt = not tested or not shown; [ ] = another dose, or the depositor's remark.

Second line of a record: TSHR agonist	Resorufin autofl	A647 autofl	A488 fluor	AID923
- COc1ccc(CCN2C(=O)CC(C(N)=O)SC2=Nc2ccccc2)cc1OC (centres undefined)
 : -2.0%	i	2.96e-08	i	-0.5%
- CNc1ccccc1C(=O)OCC(=O)c1ccccc1
 : -0.5%[11.4 µM]	nt	nt	nt	-0.4%[11.5 µM]
- CC(=O)c1cc(C#N)c(SCC(=O)C(C)(C)C)nc1C
 : nt	i	6.63e-08	i	nt
- CCOC(=O)Cc1csc(NC(=O)c2ccc(S(=O)(=O)N3CCCC3)cc2)n1
 : ?	i	1e-09	i	-1.3%
- O=C(COC(=O)c1cc(=O)[nH]c2ccccc12)NC(=O)NC1CCCCC1
 : -1.3%	i	2.78e-08	i	0.6%
- Cc1nc2ccc(S(=O)(=O)N(C)CC(=O)N3CCc4ccccc4C3)cc2s1
 : 17.3%	i	3.37e-08	i	-1.5%
- Cc1ccc2c(CSc3nnc(C4CC4)n3N)cc(=O)oc2c1C
 : 0.7%	i	1e-09	i	0.9%
- Cc1ccc(C(=O)Nc2nncs2)cc1S(=O)(=O)N1CCOCC1
 : 7.4%	i	3.27e-08	i	-1.3%
- COC(=O)C(C)Sc1nc2c(c(=O)[nH]c(=O)n2C)n1CCCc1ccccc1 (centres undefined)
 : 17.8%	i	4.41e-08	i	-1.6%
- COc1cc(-c2nnc(CSc3nnc4nc(C)cc(C)n34)o2)cc(OC)c1OC
 : -0.5%	i	3.4e-09	i	0.3%
- COc1ccc(C(=O)N2CCN(c3nnnn3-c3ccccc3)CC2)cc1OC
 : 11.5%	i	8.9e-09	i	-1.6%
- COc1ccc(Nc2cc(C)nc(N3CCOCC3)n2)cc1
 : 3.0%	i	3.68e-08	i	0.7%
- O=C(NCc1ccco1)c1ccccc1NC(=O)C1CC(=O)N(c2ccc(Cl)cc2)C1 (centres undefined)
 : 5.5%	i	3.17e-08	i	-2.6%
- O=C(CCN1CCCCC1)Nc1ccc(Br)cc1
 : -8.2%	i	1e-09	i	2.7%
- CC(C)=CC(=O)N1CCCc2ccccc21
 : -61.5%[inhibitor]	i	1.59e-08	i	-0.6%
- Cc1nnc(C)c2c(C)n(Cc3ccc4c(c3)OCO4)c(C)c12
 : ?	i	1.2e-09	i	14.1%
- Cc1nn(-c2ccccc2)cc1/C=N/O
 : -1.0%	i	3.41e-08	i	0.2%
- CC(=O)N1CCN(c2ccc(NCc3ccc(C)s3)cc2)CC1
 : -17.0%	nt	nt	nt	1.3%
- O=C(OCCO)c1cc(Cl)c(C(=O)OCCO)cc1Cl
 : -1.0%	nt	nt	nt	0.5%
- COc1ccc(-n2nnc3c(=O)n(C/C=C/c4ccccc4)cnc32)cc1
 : ?	i	1e-09	i	1.1%
- COc1ccc(CNC(=O)C(OC(C)=O)c2ccccn2)cc1 (centres undefined)
 : ?	i	2e-09	i	1.3%
- CN1CCN(S(=O)(=O)c2ccc(NC(=O)C3CCCO3)cc2)CC1 (centres undefined)
 : 9.3%	i	4.04e-08	i	1.4%
- O=C(COc1ccc(S(=O)(=O)N2CCc3ccccc32)cc1Cl)NCc1ccccn1
 : 28.1%	i	1.34e-08	i	0.5%
- O=C(NCCN1C(=O)C2C3C=CC(C3)C2C1=O)Nc1ccccc1O (centres undefined)
 : 2.5%	nt	nt	nt	-1.4%
- Cc1ccc(-n2c(C)cc(C(=O)OCC(=O)N(C)C3CCS(=O)(=O)C3)c2C)cc1 (centres undefined)
 : -2.2%	i	2.29e-08	i	0.4%
- Cc1onc(-c2ccccc2)c1C(N)=O
 : -0.4%	i	3e-08	i	1.4%
- Cc1ccc(S(=O)(=O)N2CCOCC(=O)NCCOCCNC(=O)COCC2)cc1
 : 2.2%	i	2.88e-08	i	0.8%
- O=C(Oc1ccc(Cl)c2cccnc12)N1CCCCC1
 : -7.4%	i	8.6e-09	i	-0.3%
- CC(C)C(c1nnnn1Cc1ccc(F)cc1)N1CCN(Cc2ccc3c(c2)OCO3)CC1 (centres undefined)
 : 4.1%	i	2.4e-09	i	-2.2%
- CCOc1c(C)cc2[nH]c(CCC(=O)O)nc2c1C
 : nt	i	8.33e-08	i	nt
- C=CCn1nnc2sc3c(c2c1=O)CCC(C)C3 (centres undefined)
 : 5.6%	i	1e-09	i	1.0%
- O=C(Cn1c(C(=O)N2CCc3ccccc3C2)cc2sccc21)c1ccccc1
 : 18.0%	i	5.71e-08	i	1.9%
- Cc1cc(CNC(=O)c2cc(Br)ccc2Cl)nn1C
 : 8.3%	i	1.8e-09	i	-2.3%
- Cc1nnc(NC2CCCCC2)[nH]c1=O
 : 16.7%	i	1e-09	i	0.9%
- O=C1c2cccnc2C(Nc2ccc(S(=O)(=O)N3CCCCCC3)cc2)N1Cc1ccccc1 (centres undefined)
 : nt	i	5.8e-09	i	-1.5%
- N#CC1=C(N)Oc2c(oc(CO)cc2=O)C1c1ccsc1 (centres undefined)
 : -5.2%	i	1.75e-08	i	3.7%
- c1cncc(CSc2ncnc3nc[nH]c23)c1
 : 2.1%[11.4 µM]	i	1e-09	i	-2.3%[11.5 µM]
- CN(C)CCC(=O)c1ccc(Cl)cc1
 : 7.1%[11.4 µM]	i	7.3e-09	i	0.3%
- C=C(C)c1cccc(C(C)(C)NC(=O)N2CCN(c3ncccn3)CC2)c1
 : ?	i	2.8e-09	i	-0.2%
- CCN1CCN(C(=O)Cn2ncc3c2-c2ccccc2OC3)CC1
 : ?	nt	nt	nt	2.8%

Retrieved one by one from above (2):
Second line of a record: TSHR agonist	Resorufin autofl	A647 autofl	A488 fluor	AID923
- CC(=O)N1CCN(c2ccc(NCc3ccc(C)s3)cc2)CC1
 : -17.0%	nt	nt	nt	1.3%
- COc1ccc(Nc2cc(C)nc(N3CCOCC3)n2)cc1
 : 3.0%	i	3.68e-08	i	0.7%

Later entries
Second line of a record: TSHR agonist	Resorufin autofl	A647 autofl	A488 fluor	AID923
- Cn1c(C(=O)N2CCCC(C(=O)NCCN3CCOCC3)C2)cc2sccc21 (centres undefined)
 : 7.3%[11.4 µM]	i	2.95e-08	i	-0.6%
- COc1ccc(N2C(=O)CCC(C(=O)N3CCCCC3)C2c2ccc(OC)c(OC)c2)cc1 (centres undefined)
 : 3.6%	i	3.31e-08	i	1.1%
- COc1ccc(-n2c(=O)cc(N3CCN(Cc4ccccc4)CC3)[nH]c2=O)cc1
 : 4.9%	nt	nt	nt	-1.5%
- O=C(Nc1ccc2c(c1)OCCO2)C1CCCN(S(=O)(=O)c2cccs2)C1 (centres undefined)
 : 6.2%	i	1.01e-08	i	-0.2%
- CCOc1nc(OCC)nc(-n2cc(-c3ccccc3)nn2)n1
 : ?	i	1e-09	i	0.3%
- Cc1nnc(NC(=O)c2ccc(S(=O)(=O)N3CCCCCC3)cc2)o1
 : 5.3%	i	1e-09	i	0.2%
- Cc1ccc(S(=O)(=O)Nc2cc(=O)[nH]c3c2CCC3)cc1
 : -1.8%[11.4 µM]	i	1e-09	i	-0.7%[11.5 µM]
- Cc1cc(NCCN2CCOCC2)n2nc(C)c(-c3ccc(Cl)cc3)c2n1
 : -11.4%[11.4 µM]	i	2.09e-08	i	0.0%
- O=C(c1cn(-c2ccccc2)nc1-c1ccc(Cl)s1)N1CCOCC1
 : 25.1µM*	i	1e-09	i	0.0%
- COc1ccc(/C=C/C2=CC3(C)CC2(C)C(c2ccc(OC)cc2)CC3=O)cc1 (centres undefined)
 : 9.1%[11.4 µM]	nt	nt	nt	0.8%[11.5 µM]
- Cc1cccc(C(=O)O)c1C[C@H]1NCC[C@H]2c3ccccc3N[C@@H]12
 : -4.6%[11.4 µM]	i	2.9e-09	i	2.2%[11.5 µM]
- CN1[C@H](Cc2ccccc2)C=C[C@]1(C)C(=O)NCC1CC1
 : -0.6%	nt	nt	nt	0.8%
- Cc1ccc(S(=O)(=O)NCCSc2nnnn2-c2cc(C)ccc2C)cc1
 : ?	i	4.7e-09	i	-0.5%
- c1ccc(CCc2ccccc2-c2nc(-c3cccnc3)no2)cc1
 : ?	i	1e-09	i	0.1%
- CCOc1ccc(OCC)c(NC(=O)C2CCN(S(=O)(=O)c3cnc[nH]3)CC2)c1
 : 2.4%	i	1.06e-08	i	-3.0%
- Cc1cccc2sc(NC(=O)Cn3cccc3)nc12
 : -6.8%	nt	nt	nt	0.3%
- O=C(OCC(=O)N1CCN(c2ccccc2)CC1)C1=COCCO1
 : -2.0%	i	7e-09	i	-1.4%
- CCCCNS(=O)(=O)c1ccc(OC)c2ncccc12
 : 9.5%[11.4 µM]	i	1.78e-08	i	0.1%
- CN1CCN(CC(=O)Nc2nc(-c3ccccc3)cs2)CC1
 : nt	i	7.53e-08	i	nt
- CCCCSc1nc2c(cc1C#N)CCC2
 : 22.6%	i	3.93e-08	i	-2.0%
- Nn1c(-c2ccccn2)nnc1-c1ccccn1
 : ?	i	1.8e-09	i	1.6%
- O=c1c2ccccc2nc(SCc2nnc(-c3ccccc3)o2)n1-c1ccc(F)cc1F
 : ?	i	3.2e-08	i	1.1%
- CCC(C)Nc1ccc(NC(C)CC)cc1 (centres undefined)
 : ?	nt	nt	nt	7.0%
- Cc1ccc(N2C(=O)CC(NCc3ccc4c(c3)OCO4)C2=O)cc1Cl (centres undefined)
 : 17.8%	nt	nt	nt	-0.8%
- CCOC(=O)c1cccc(S(=O)(=O)N(CCO)Cc2cc3cc(OC)ccc3[nH]c2=O)c1
 : -0.9%	i	5.54e-08	i	1.0%
- O=C1C=C[C@@H](O)[C@@H]2[C@H]3C(=O)N(c4ccc(F)cc4F)C(=O)[C@@H]3CC[C@@H]12
 : 2.1%[11.4 µM]	nt	nt	nt	-2.7%[11.5 µM]
- ONC(=Nc1ccccc1)C(=Nc1ccccc1)NO
 : nt	i	3.32e-08	i	nt
- CC(=O)Nc1cccc(NC(=O)CSc2nnc(Cc3cccn3C)n2-c2ccc(C)cc2)c1
 : 19.8%	i	7.6e-09	i	1.5%
- Cc1ccc(-c2nc(=S)c3c(n2Cc2ccco2)CC(C)(C)OC3)cc1
 : ?	nt	nt	nt	3.3%
- Cc1cc(C)n(-c2nc(C)nc(N)n2)n1
 : -2.0%	i	3.19e-08	i	0.1%
- CC1=C(C)CC(C(=O)Nc2cccc(Cl)c2)C(C(=O)O)C1 (centres undefined)
 : 3.7%	i	1e-09	i	-0.1%
- COc1ccc(NC(=O)CN2CCN(S(=O)(=O)c3ccc(Cl)cc3)CC2)cc1Cl
 : 16.0%	nt	nt	nt	5.6%
- CC1CN(c2nc3ccccc3nc2C(C#N)C(=O)OC2CCCCC2)CC(C)O1 (centres undefined)
 : 19.4%	i	1e-09	i	4.8%
- O=C(NC1CCCCC1)N(CCN1CCCC1)Cc1cc2cc3c(cc2[nH]c1=O)OCCO3
 : 1.0%	i	2.6e-09	i	3.2%
- O=C(NCCCN1CCCC1=O)c1nnc(Cc2c(F)cccc2Cl)o1
 : 3.7%	i	2.5e-09	i	2.0%
- CCCNS(=O)(=O)c1ccc(OCC(=O)Nc2ccccc2F)cc1
 : -1.3%	i	1e-09	i	-1.1%
- COc1ccc(OC)c(C(=O)c2coc3ccc(O)cc23)c1
 : 8.5%[11.4 µM]	nt	nt	nt	-1.6%
- CCOc1ccccc1Oc1coc2cc(OC(=O)c3ccco3)ccc2c1=O
 : 21.0%	i	3.8e-09	i	-1.9%
- COc1ccc(Cl)cc1NC(=O)NC(C)c1ccncc1 (centres undefined)
 : 22.7%	i	3.44e-08	i	0.7%
- CCCc1nc(SCc2ccccn2)c2c(=O)n(C)c(=O)n(C)c2n1
 : 29.7%	nt	nt	nt	-4.1%

A portion of the library. The share of hits here may be higher or lower than overall.
